High-throughput results from PubChem BioAssay.
MT1-MMP act inh: blocks activation of human MT1-MMP; P50281; HT1080 RFP-PRO-GFP cells, GFP/RFP ratio fluorescence, overnight; percent of plate control window, DMSO zero; GFP/RFP ratio change, % at 20 µM; 360,000 compounds, 0.061% hits; AID 651647;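 active = GFP/RFP ratio change of at least 30% with cell ATP level not reduced by more than half and red fluorescence within 50% of control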; note: strong numbers were not always called active
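Assay system: HT1080 RFP-PRO-GFP cells. Benchmarks: DMSO vehicle wells and RFP-L50D-GFP reporter cell wells. Times: overnight cell settling, then overnight compound exposure, 37 °C, 5% CO2. Compound: 20 µM single dose, 1% DMSO. Read-out basis: GFP/RFP fluorescence ratio.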
Rce1 inhib: yeast Ras-converting enzyme inhibition; Q03530; yeast membranes, quenched prenylated peptide cleavage fluorescence; calls only; 290,000 compounds, 0.27% hits; AID 2563;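 active = fall in fluorescence gain of 50% or more versus controls, with final raw signal at or below 3038400; inconclusive = same 50% fall but final raw signal above 3038400; inactive = fall in fluorescence gain under 50%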;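 note: plate controls were neutral control wells for no effect and wells lacking membranes for full effect; tested at 10 µM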
UUG fidelity: alters start codon recognition fidelity in yeast; S. cerevisiae UUG-firefly luciferase reporter, luminescence/redox ratio; activity score, % at 18.7 µM; 350,000 compounds, 0.13% hits;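 active = replicate mean at a twofold rise or more, about +100% in these data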;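 note: firefly luciferase made from a UUG start codon reports start codon fidelity; reporter light over untreated wells divided by growth signal over untreated wells; some hits fall short of that in this replicate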
PABP polyA inh: blocks human PABP binding to poly(A) RNA | P11940 | fluorescence polarization | inhibition, % at 35 µM | 290,000 compounds, 1% hits | AID 2014;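 active = 50% or more with normal probe brightness, or confirmed in later tests; inconclusive = above 50% with abnormal brightness, or retests that disagree; inactive = below 50% or failed in later tests; about a fifth of its hits are not listed in these tables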;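 note: calls also rest on retests at 20 µM and on dose response follow-up; controls were probe without protein and protein plus probe with vehicle; some compounds called inactive have numbers as strong as hits; many hits fall short of the cut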
Target sequence (P11940 whole entry, looked up): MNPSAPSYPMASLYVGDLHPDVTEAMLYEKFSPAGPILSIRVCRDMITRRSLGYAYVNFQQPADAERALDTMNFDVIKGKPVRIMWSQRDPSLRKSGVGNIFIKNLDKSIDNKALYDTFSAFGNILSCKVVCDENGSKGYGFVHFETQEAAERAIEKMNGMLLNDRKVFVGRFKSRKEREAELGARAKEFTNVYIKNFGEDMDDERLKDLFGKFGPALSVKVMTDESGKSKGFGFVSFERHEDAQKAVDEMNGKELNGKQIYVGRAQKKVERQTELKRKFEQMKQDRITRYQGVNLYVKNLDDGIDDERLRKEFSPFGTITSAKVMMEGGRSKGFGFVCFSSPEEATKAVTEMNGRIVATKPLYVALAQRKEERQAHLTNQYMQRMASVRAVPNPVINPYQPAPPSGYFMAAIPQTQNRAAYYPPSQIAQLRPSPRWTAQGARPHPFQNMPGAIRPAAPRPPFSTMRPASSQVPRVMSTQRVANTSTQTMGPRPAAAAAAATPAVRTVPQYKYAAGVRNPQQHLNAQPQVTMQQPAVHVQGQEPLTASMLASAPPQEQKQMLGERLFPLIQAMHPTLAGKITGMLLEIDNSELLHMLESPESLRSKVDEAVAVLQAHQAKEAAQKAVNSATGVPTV
eIF4H inh: inhibitors of RNA binding by human eIF4H; Q15056; 290,000 compounds, 0.94% hits; AID 2012; eIF4H fluorescence polarization binding assay; inhibition, % at 35 µM;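 active = 50% or more with normal probe brightness, or confirmed in later tests; inconclusive = above 50% with abnormal brightness, or retests that disagree; inactive = below 50% or failed in later tests; about a fifth of its hits are not listed in these tables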;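 note: calls also rest on retests at 20 µM and on dose response follow-up; 0% = protein and probe with vehicle and 100% = probe without protein; strong numbers were not always called active; many hits fall short of the cut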
HIV Env fusion: blocks HIV Env-driven cell-cell fusion | HeLa-JRFL Env/CEM21 cell fusion, luciferase | inhibition, % at 12.3 µM | 360,000 compounds, 1.1% hits | AID 651610;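 active = mean replicate inhibition score of at least 50 and every replicate individually at or above 50; inconclusive = only one of the two criteria met; inactive = mean below 50 and not all replicates reaching 50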;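 note: 0% = plate neutral controls and 100% = maraviroc near 300 nM; one replicate is shown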
CSC inhib: blocks cancer stem cells; AID 2717; cancer stem cell-like cells viability, luminescence; inhibition, % at 7.5 µM; 300,000 compounds, 1.1% hits;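 active = mean at 75% or more and at least half the replicates too; inconclusive = mean and replicates disagree; tested in HMLE shEcad cells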;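 note: 0% = median of negative and 100% = median of positive control wells; the first replicate is given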
eIF4H inh retest: further read-out of eIF4H inh, marked with its call; inhibition, %; compound at 20 µM; confirmation average;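 mean of two retest wells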
PABP polyA inh retest: also measured in PABP polyA inh; calls as there; inhibition, %; compound at 20 µM; confirmation repeats;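 mean of two retest wells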
MT1-MMP act inh RFP: second read-out of MT1-MMP act inh, no call of its own (marks repeat the call); RFP signal change, %; measured here: RFP expression control read;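 0 = vehicle wells; hits needed this value within 50% of zero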
Starred values were filed as active, the others as inactive; i = inactive; u = inconclusive; x = not tested or not shown.

SMILES	MT1-MMP act inh	MT1-MMP act inh RFP	Rce1 inhib	UUG fidelity	PABP polyA inh	eIF4H inh	HIV Env fusion	CSC inhib	others
CC1(C)O[C@@H]2CC3C4C[C@H](F)C5=CC(=O)C=CC5(C)C4C(O)CC3(C)[C@]2(C(=O)CO)O1 (stereo not given in full)	-4	-2	i	-12	x	x	-9	4
CC1Oc2ccc(C#N)cc2N(Cc2cccc(F)c2)C1=O (stereo not given)	-4	-4	x	-9	x	x	18	x
COc1cccc(CNC(=O)CCNC(=O)c2ccco2)c1	-3	6	i	-21	x	x	5	-1
CNC(=O)CCc1ccc(OC)cc1	0	2	i	-11	-1	-5	3	1
O=C1c2ccccc2C(=O)N1CCCC(=O)N1CCc2ccccc21	1	5	i	x	4	13	x	-9
COC(=O)Cc1cc(=O)n2c(nc3ccccc32)[nH]1	1	3	i	-5	x	x	-16	-5
CCOC(=O)N1CCN(c2nc3c(c(=O)[nH]c(=O)n3C)n2Cc2ccccc2Cl)CC1	x	x	i	x	-8	-4	x	x
CC(=O)Nc1ccc(S(=O)(=O)NNC(=O)c2cccc(Br)c2)cc1	1	0	i	x	-4	-4	5	-2
O=C(C1CCCO1)N1CCN(C(=S)Nc2ccc(F)c(Cl)c2)CC1 (stereo not given)	3	2	i	-22	-5	7	27	-7
Cc1ccc(Nc2cc(C)nc3c(C)cccc23)cc1	-3	-1	i	-1	0	6	5	6

Next section, overlapping the part above by 2 compounds.
SMILES	MT1-MMP act inh	MT1-MMP act inh RFP	Rce1 inhib	UUG fidelity	PABP polyA inh	eIF4H inh	HIV Env fusion	CSC inhib	others
O=C(C1CCCO1)N1CCN(C(=S)Nc2ccc(F)c(Cl)c2)CC1 (stereo not given)	3	2	i	-22	-5	7	27	-7
Cc1ccc(Nc2cc(C)nc3c(C)cccc23)cc1	-3	-1	i	-1	0	6	5	6
CCOC(=O)N1CCN(Cc2ccc(F)cc2F)CC1	-3	-1	i	-9	13	2	3	-8
O=C(/C=C/c1cccc([N+](=O)[O-])c1)Nc1ccc(Cl)cn1	-1	-5	i	x	11	0	-35	20
COc1cc(C(=O)Nc2ccccc2N2CCOCC2)ccc1OCC(=O)N1CCOCC1	-2	2	x	-23	x	x	x	-5
CCN1C(=O)C(CC(=O)NC)N(NC(=O)c2ccccc2)C1=S (stereo not given)	3	2	i	-12	12	-2	-1	2
COCc1nnc(NC(=O)c2ccc3c(c2)OCO3)s1	3	3	i	-22	17	0	-5	-12
Cc1ccc(-n2c(SCC(N)=O)nnc2-c2cnccn2)cc1	0	1	i	3	0	2	-4	-12
COc1ccc(Cn2c(-c3ccccc3)nc3c(c(=O)c4ccccc4n3C)c2=O)cc1	-1	-4	i	x	15	16	x	14
O=C(NC1CCCc2ccccc21)c1cccc(F)c1 (stereo not given)	-6	-5	x	-13	x	x	6	x
CC(=O)Nc1ccc(Nc2nc(C(F)(F)F)nc3c2nnn3Cc2ccccc2Cl)cc1	-1	-24	i	-28	-6	-6	32	13
Fc1ccc(-c2nc3ccc(Cl)cn3c2Cc2cccc(Cl)c2)cc1	-2	-6	x	-9	x	x	0	x

Looked up by structure from the list above:
SMILES	MT1-MMP act inh	MT1-MMP act inh RFP	Rce1 inhib	UUG fidelity	PABP polyA inh	eIF4H inh	HIV Env fusion	CSC inhib	others
COCc1nnc(NC(=O)c2ccc3c(c2)OCO3)s1	3	3	i	-22	17	0	-5	-12
CC1(C)O[C@@H]2CC3C4C[C@H](F)C5=CC(=O)C=CC5(C)C4C(O)CC3(C)[C@]2(C(=O)CO)O1 (stereo not given in full)	-4	-2	i	-12	x	x	-9	4
O=C(C1CCCO1)N1CCN(C(=S)Nc2ccc(F)c(Cl)c2)CC1 (stereo not given)	3	2	i	-22	-5	7	27	-7
Cc1ccc(-n2c(SCC(N)=O)nnc2-c2cnccn2)cc1	0	1	i	3	0	2	-4	-12
O=C(NC1CCCc2ccccc21)c1cccc(F)c1 (stereo not given)	-6	-5	x	-13	x	x	6	x
CCOC(=O)N1CCN(c2nc3c(c(=O)[nH]c(=O)n3C)n2Cc2ccccc2Cl)CC1	x	x	i	x	-8	-4	x	x

Following part
SMILES	MT1-MMP act inh	MT1-MMP act inh RFP	Rce1 inhib	UUG fidelity	PABP polyA inh	eIF4H inh	HIV Env fusion	CSC inhib	others
CCCC(=O)N1CCN(c2ccc(NC(=O)c3ccc(Br)o3)cc2)CC1	3	2	i	9	6	0	x	-8
CCN1/C(=C/c2ccc3cc(C)cc(C)c3[n+]2CC)Sc2cc(C)ccc21	-19	61	x	35	1	-42	24	x
CCOC(=O)Cc1csc(Nc2c(C)n(C)n(-c3ccccc3)c2=O)n1	4	-2	i	-1	-17	1	9	-13
c1ccc2c(c1)NCC1CCCN21 (stereo not given)	-13	-3	i	-17	76	104*	8	5	eIF4H inh retest=71*;PABP polyA inh retest=43
COC(=O)c1ccc(N2CCN(C(=O)C3CC3)CC2)c([N+](=O)[O-])c1	0	0	i	-12	7	-10	-11	-9
COc1ccc(NC(=O)c2cccc(S(=O)(=O)N3CCc4ccccc43)c2)cn1	-7	-9	i	x	-7	u	16	x
CCCC(=O)N1CCC(O)(c2cccc(F)c2)CC1	12	10	i	-8	2	-1	2	6
CCc1nc2c(OCCc3cccc(OC)c3)cccn2c1N(C)C(=O)c1cccs1	-6	-5	x	-6	x	x	31	x
O=C(Nc1cccn2ncnc12)c1ccc(Cl)cc1	-16	-1	i	-1	3	4	19	1
Cc1ccc(NC(=O)c2nnn(-c3cc(C)cc(C)c3)c2N)cc1	-2	-5	i	0	0	-11	-3	27
CN(C(=O)Nc1ccccc1)C1CCS(=O)(=O)C1 (stereo not given)	6	8	i	-15	6	4	x	-10
COc1ccc(/C=c2\s/c(=C\C(=O)C(C)(C)C)[nH]c2=O)cc1O	1	-6	i	x	9	-10	-11	14
CN(C)/C=C(/C#N)C(=O)c1cccc(Oc2ccc(C(C)(C)C)cc2)c1	1	1	i	-14	-3	2	-11	-7
O/N=C/c1ccnc(SCc2ccccc2)n1	1	-2	i	x	-4	-6	-15	16
O=[N+]([O-])c1cc(Cl)cc(/C=N/NC(=S)Nc2cc(S(=O)(=O)N3CCOCC3)ccc2Cl)c1O	0	-8	i	x	70*	90*	8	30
O=C1COc2ccc(C(=O)COC(=O)CCOc3ccccc3)cc2N1	-1	0	x	-7	x	x	-17	0
CCCC(c1nnnn1C(C)(C)CC)N(Cc1ccco1)Cc1cc2ccc(OC)cc2[nH]c1=O (stereo not given)	-7	-8	i	x	-5	-1	x	x
COCCNC(=O)CSc1n[nH]c(=O)n1CCc1ccccc1	-1	3	i	-8	-2	-2	5	-3
Cc1cc(C(=O)NCc2cccs2)cs1	-3	1	i	x	-2	-3	x	-2
O=C(O)c1c[nH]n2c(=S)ncnc12	-1	6	x	19	x	x	3	x
COc1ccc(C(=O)Nc2nnc(C(F)(F)F)s2)cc1	-5	-9	i	-6	9	3	x	19
O=C(COC(=O)Cc1cccs1)Nc1ccc(OC(F)(F)F)cc1	6	6	i	-12	x	x	4	-6
CC1CCN(C(=O)CSc2nnc(CNC(=O)c3ccc(F)cc3)o2)CC1	-3	-3	i	-4	6	-1	x	-14
CCSc1ccc(C(=O)NCC(=O)O)cc1	-4	0	x	-5	-2	-8	2	11
O=C(Nc1ccc(F)cc1)C1CC(=O)n2cnnc2N1 (stereo not given)	2	5	i	4	3	-10	18	1
COCCN=C1N[C@@H](c2cccc(C(F)(F)F)c2)C(C(=O)OC)=C(C)N1Cc1ccccc1	2	-3	i	-10	43	11	0	4
OCCN(CCO)c1ncnc2c1sc1nc(N3CCOCC3)c3c(c12)CCCC3	-2	-7	i	-11	2	-10	u	2
Cc1nc2scc(C)n2c(=O)c1S(=O)(=O)N1CCN(c2ccc([N+](=O)[O-])cc2)CC1	8	-4	i	6	15	-14	7	-7
CC(OC(=O)c1ccc(O)cc1)C(=O)Nc1nc(-c2ccccc2)cs1 (stereo not given)	-8	-9	x	0	x	x	-27	x
O=S(=O)(CCN(CCS(=O)(=O)C(F)(F)F)CC1CCCO1)C(F)(F)F (stereo not given)	-7	-2	i	x	-2	38	x	11
CCOc1ccccc1NC(=O)C(OC(=O)c1ccc(NC(=O)CC#N)cc1)c1ccccc1 (stereo not given)	-8	-6	i	x	x	x	x	-8
CC1=NN(CCc2ccccn2)C(=O)CC1	-2	0	i	x	x	x	10	-15
COC(=O)[C@H](Cc1c[nH]c2ccccc12)NC(=O)NCc1ccccc1	0	2	i	-29	14	-3	6	-4
Fc1cc2ncn(Cc3ccccc3)c2cc1F	1	0	i	-20	5	5	x	x
CN1CCc2nc3ccccc3c(C(=O)OCC(=O)N(CCC#N)c3ccccc3)c2C1	-7	-5	i	20	-19	17	4	-6
O=C(COC(=O)c1cc(=O)c2ccccc2o1)Nc1cc(Cl)ccc1Cl	3	6	x	7	x	x	4	x
O=C(N/N=C/c1ccoc1)c1ccc(Cl)cc1Cl	-4	5	i	-17	3	9	8	-16
CCOC(=O)c1cn(CC)c2cc(N3CCSCC3)c(F)cc2c1=O	-2	-1	i	-31	4	-8	x	-4
Cn1cc(CCC(=O)NCc2ccc3c(c2)OCO3)c2ccccc21	-1	5	i	-13	2	-3	x	-4
Cc1ccc(-c2csc3ncnc(N4CCN(C(=O)c5ccccc5)CC4)c23)cc1	-8	-10	i	x	-5	-1	x	-1
CC(NCCN(C)C)C(=O)C12CC3CC(CC(C3)C1)C2 (stereo not given)	1	5	i	x	9	-9	7	1
COc1cc(C(=O)Nc2cc(Cl)ccc2-n2cncn2)ccc1OC(F)F	-6	1	i	-18	x	x	6	3
CN1CCN(NC(=S)NC(C)(C)CC(C)(C)C)CC1	-2	0	i	-25	0	-6	2	-7
COCCN(Cc1cn(C)nc1-c1ccccc1F)C(C)C	-13	-2	i	x	-4	-5	9	8
Cc1ccccc1CSc1nnc(-c2cccs2)n1Cc1ccco1	3	-4	i	-16	-15	1	-41	3
CCC(=O)N1CCN(c2ccccc2NC(=O)c2ccc(-c3cccc([N+](=O)[O-])c3)o2)CC1	-9	-8	i	x	-14	-1	-27	3
O=C(COC(=O)C1CCN(c2ccc(C(F)(F)F)cn2)CC1)NCc1cccc(Cl)c1	2	4	x	3	x	x	-19	x
Cc1ccc2c(Cl)cc(Cl)c(OCC(=O)NC(=O)NCc3ccco3)c2n1	-1	-4	i	-13	9	8	-38	15
COc1ccc(CNc2ncc(-c3ccc(Br)cc3)n2C)cc1OC	4	0	i	-6	1	6	11	x
N#Cc1cnc(SCC(=O)c2ccccc2)nc1N	-1	3	i	x	4	10	-39	12
C[C@H]1CCC(=O)N([C@H](CN=[N+]=[N-])Cc2ccccc2)CC1	3	3	i	-13	-4	-7	7	13
N#C/C(=C\c1cc([N+](=O)[O-])ccc1Cl)C(N)=O	-2	-1	i	x	10	0	-19	x
O=C(NCc1ccccc1)c1cccc(COc2ccc(Cl)cc2)c1	13	-5	i	-12	-4	1	-47	21

Three structures out of the list, arranged by molar mass, high to low.
SMILES	MT1-MMP act inh	MT1-MMP act inh RFP	Rce1 inhib	UUG fidelity	PABP polyA inh	eIF4H inh	HIV Env fusion	CSC inhib	others
O=C(COC(=O)C1CCN(c2ccc(C(F)(F)F)cn2)CC1)NCc1cccc(Cl)c1	2	4	x	3	x	x	-19	x
COCCN(Cc1cn(C)nc1-c1ccccc1F)C(C)C	-13	-2	i	x	-4	-5	9	8
CN1CCN(NC(=S)NC(C)(C)CC(C)(C)C)CC1	-2	0	i	-25	0	-6	2	-7

No enrichment for hits. About 2.9% of those tested had a hit in this group.
